# AmpC nodet inh: inhibitors of E. coli AmpC beta-lactamase without detergent | AmpC nitrocefin hydrolysis, absorbance 480 nm, no detergent; potencies from a single point are estimates | Potency, µM (doses to about 28.7 µM), inactives show at the highest dose activity change, negative = inhibition | 71,000 tested, 1.8% active | AID 585; active = falling curve, for most hits resting on a single point; inconclusive = weak or doubtful change; inactive = flat or rising curve; further: % of control where 0% means no effect; about half of the hits show no inhibition at the top dose; a quarter of the inactives give rising signals
# Target sequence (P00811 whole entry, looked up): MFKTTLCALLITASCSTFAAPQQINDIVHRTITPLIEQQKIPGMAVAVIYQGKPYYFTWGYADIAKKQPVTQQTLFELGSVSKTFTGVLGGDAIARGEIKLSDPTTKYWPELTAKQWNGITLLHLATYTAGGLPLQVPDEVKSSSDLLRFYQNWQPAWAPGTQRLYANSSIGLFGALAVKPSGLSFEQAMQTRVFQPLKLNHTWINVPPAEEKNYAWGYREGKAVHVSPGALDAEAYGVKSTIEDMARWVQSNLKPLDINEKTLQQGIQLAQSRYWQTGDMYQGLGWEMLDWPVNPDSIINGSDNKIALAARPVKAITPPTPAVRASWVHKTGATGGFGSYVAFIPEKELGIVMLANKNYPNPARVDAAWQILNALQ
#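 AmpC in 20 mM phosphate buffer pH 7.0 was preincubated 15 min at room temperature with compounds. Nitrocefin (800 uM stock) was then added and hydrolysis followed at 480 nm every 20 s for 4 min.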
# * hit, by the source's call; [ ] = another dose, or the depositor's remark. Potency means the concentration at half of the fitted maximal effect.
Compound	AmpC nodet inh
O=C(COc1ccccc1Cl)NCCCN1CCOCC1	-2%
Cc1occc1C(=O)NC1CCCCCC1	6%
O=C(c1cccc(F)c1)N1CCC2(CCN(Cc3nccs3)CC2)CC1	33%
Cc1noc(C)c1COC(=O)C1CC(O)CN1S(=O)(=O)c1ccc(Cl)cc1 (stereo unspecified)	34%
CN=C1SC(CC(=O)Nc2sc3c(c2C#N)CCCC3)C(=O)N1C (stereo unspecified)	128%
Cc1ccc2cc(-c3noc(C4CCCO4)n3)c(=O)[nH]c2c1 (stereo unspecified)	9%
CCN1C(=O)C(Cc2nc3ccccc3c(=O)n2C)c2ccccc21 (stereo unspecified)	65%
Cc1ccc(Cl)cc1N1CCN(S(=O)(=O)c2cccc(S(=O)(=O)N3CCCC3)c2)CC1	-4%
CCSC1=C(C#N)C(=O)n2c1cc1c2CCCC1	-14%
CCCCCCN(C(=O)CCCCCN1C(=O)NC(c2ccc([N+](=O)[O-])cc2)C(C(=O)OCc2ccccc2)=C1C)C(C(=O)NCCCC)c1ccc(OCC(=O)OC)c(C(=O)OC)c1 (stereo unspecified)	38%
COC(=O)c1[nH]c2ccc(F)cc2c1NC(=O)CCN1CCN(C(=O)c2ccco2)CC1	34%
CC(=NC1CCN(Cc2ccccc2)CC1)c1c(O)n(C)c(=O)n(C)c1=O	12%
C=CCn1c(N)cc(=O)nc1SCC(=O)N1CCN(c2ccc(F)cc2)CC1	19%
CC(C)CC(c1nnnn1CC1CCCO1)N1CCN(Cc2ccc3c(c2)OCO3)CC1 (stereo unspecified)	52%
CC1(C)C(c2cccs2)=[N+]([O-])C2(CCCCC/C2=N\O)N1O (stereo unspecified)	-7%
CC(=O)Nc1ccc(OC(=O)C(CCS(C)(=O)=O)N2C(=O)c3ccccc3C2=O)cc1 (stereo unspecified)	12%
CCOC(=O)CSc1nc2cc(OC)ccc2cc1C#N	13%
Fc1ccc(-n2c(Cc3ccccc3)nnc2SCc2nc(-c3cccs3)no2)cc1	49%
Cc1ccccc1-c1nc(CN2CCC(C(=O)NCCCN3CCCC3)CC2)c(C)o1	22%
Cn1c(=O)c2cc(S(=O)(=O)NCCC(=O)NCc3ccccc3Cl)ccc2n(C)c1=O	15%
CCOc1ccc(CCNS(=O)(=O)c2c(C)n[nH]c2C)cc1OCC	16%
N#CC(c1nc2ccccc2nc1N1CCCCC1)S(=O)(=O)c1ccc(Cl)cc1 (stereo unspecified)	-12%
Cc1cccc(NC(=O)Cn2nnc(-c3cccs3)n2)c1C	83%
Nc1cc(N)nc(SCC(=O)NCC2CCCO2)n1 (stereo unspecified)	-9%
CC(=O)c1c(C)[nH]c(C(=O)Nc2ccc(C)cn2)c1C	-1%
O=S(=O)(Nc1ccncc1)c1ccccc1	-6%
COc1ccc(NC(=O)CCN2CCCCCC2)c(OC)c1	-6%
CCCCOc1ccc(CNn2c(C)nc3ccccc3c2=O)cc1	102%
Cc1noc(C)c1S(=O)(=O)N1CCC(C(=O)N2CCC(N3CCCCC3)CC2)CC1	1%
CCOc1cccc(/C(O)=C2/C(=O)C(=O)N(CCN3CCOCC3)C2c2cccnc2)c1 (stereo unspecified)	8%
CC1(C)N=C(/C=N/O)C=[N+]1[O-]	5%
Cc1noc(C)c1CSc1nnc2n(-c3ccccc3)c(=O)c3ccccc3n12	10%
NC(=O)CN1C(=O)C(O)(CC(=O)c2ccccc2O)c2ccccc21 (stereo unspecified)	-2%
CCC(=O)Nc1nn(C)c2nc3c(C)cccc3cc12	30%
CCOC(=O)c1[nH]c(C)c(/C(O)=C2\C(=O)C(=O)N(CCN(C)C)C2c2ccncc2)c1C (stereo unspecified)	-8%
O=C1c2cccnc2C(=O)N1Cc1ccc2c(c1)OCO2	1%
O=C(/C=C/N1CCOCC1)c1ccc(-c2ccccc2)cc1	13µM*
Cc1ccccc1NC(=O)CCN1CCCCCC1	-18%
COC(=O)c1cc(CSc2nnc(NC3CCCCC3)s2)oc1C	2%
COC(=O)CCC(=O)Nc1sc(C)c(C)c1C(N)=O	-4%
Cc1ccc(C2NC(=O)NC(O)(C(F)(F)F)C2C(=O)c2cccs2)o1 (stereo unspecified)	-2%
CCC(C)(C)NC(=O)c1ccc2c(c1)N(CC(=O)OC)C(=O)C(C)(C)O2	18%
CCOC(=O)C(O)(NC(=O)c1cccnc1)C(F)(F)F (stereo unspecified)	2%
CC1(C)Oc2ccc3ccc(=O)oc3c2C(N2CCCCC2)C1O (stereo unspecified)	38%
O=C(NC1(C(F)(F)F)Oc2ccccc2O1)N1CCCC1	3%
COc1ccccc1OCC(=O)Nc1nnc(-c2ccco2)s1	-5%
CN1CCCCCC1=Nc1ccccc1C#N	-8%
COc1cccc(NC(=O)CSc2nc3c(c(=O)n2C)SC(C)C3)c1 (stereo unspecified)	-1%
COCCCn1c(SCC(=O)Nc2cccc(C(=O)OC)c2)nnc1-c1ccncc1	30%
Cc1cc(C(=O)OCC(=O)N2CCc3ccccc32)c(C)o1	-4%
COc1ccc(-n2c(=O)cc(N3CCc4ccccc43)[nH]c2=O)cc1	6%
COc1ccc(Cn2c(N)c(C(=O)NCc3ccco3)c3nc4ccccc4nc32)cc1OC	111%
CCOC(=O)Nc1ccc(NS(=O)(=O)c2ccc(C)cc2)cc1	-14%
O=C(Nc1scc(-c2cccs2)c1C(=O)O)c1cccs1	-17%
Cc1ccc(-n2nnnc2SCC(=O)N2CCc3ccccc3C2)cc1	11%
N#CCCNc1ccc(OCCC#N)cc1	-6%
Cc1ccc(-n2c(CSc3nc(C)cc(C)n3)nnc2SCC(=O)N2CCCC2)cc1	63%
Oc1ccc(O)c2c(O)cccc12	0.63µM*
CCOC(=O)N1CCN(C(=O)C2CCC(=O)N2C(C)C)CC1 (stereo unspecified)	-13%
Cc1c(N=C2NC(=O)C(CC(=O)Nc3ccccc3)S2)c(=O)n(-c2ccccc2)n1C (stereo unspecified)	17%

# Following part.
Compound	AmpC nodet inh
O=c1c(CCc2ccccc2)nc2cnc(Oc3ccccc3)nc2n1C[C@H]1CCCO1	36%
COc1ccc(S(=O)(=O)N2CCC(C(=O)NCC(c3cccs3)N(C)C)CC2)cc1 (stereo unspecified)	34%
CCOC(=O)c1ccc(S(=O)(=O)NC2CCCCCCC2)n1C	4%
Cc1noc(C)c1CSc1nnc(C)c(=O)[nH]1	1%
COc1cc(S(=O)(=O)N2CCCCCC2)c(OC)cc1Br	26%
CCN(CC)CCn1c(-c2ccccc2)nc2c(NC3CCCCC3)nc(C)nc21	112%
Cn1nc(OCc2ccccc2)ccc1=O	9%
COc1cccc(C(=O)N(Cc2nc(-c3ccc(C)cc3)no2)C(C)C)c1	60%
O=C(CN1C(=O)CC(c2ccco2)Sc2ccccc21)Nc1ccccc1F (stereo unspecified)	15%
O=C(NCc1n[nH]c(=S)n1-c1ccc(F)cc1)c1ccco1	5%
COc1ccc2[nH]c3cc4c(=O)c5cc(OC)ccc5[nH]c4cc3c(=O)c2c1	1%[5.75 µM]
CCOC(=O)N1CCN(S(=O)(=O)c2cc(Br)cnc2N)CC1	17%
COc1ccc(C(c2sc3nc(C)nn3c2O)N2CCN(Cc3ccccc3)CC2)cc1OC (stereo unspecified)	-9%
Cc1cc(C(=O)Nc2ccc(S(=O)(=O)Nc3nccs3)cc2)c(C)o1	-6%
CCc1ccc(-c2nc(CN3CCC(C(=O)NCc4ccccc4OC)CC3)c(C)o2)cc1	107%

# Overlap with the part before: two entries; new compounds follow.
Compound	AmpC nodet inh
Cc1cc(C(=O)Nc2ccc(S(=O)(=O)Nc3nccs3)cc2)c(C)o1	-6%
CCc1ccc(-c2nc(CN3CCC(C(=O)NCc4ccccc4OC)CC3)c(C)o2)cc1	107%
COC(=O)[C@@]1(Cc2ccc(F)cc2)[C@H]2c3cc(C(=O)N(C)C)n(CCF)c3C[C@H]2CN1C(=O)c1ccccc1	174%
CC(C)CN1CCCC2(CCN(C(=O)c3ccco3)CC2)C1	31%
CC1Cc2cc(/C(O)=C3\C(=O)C(=O)N(CCN(C)C)C3c3ccccc3F)ccc2O1 (stereo unspecified)	6%
CCOC(=O)CCCN	4%[5.75 µM]
Cc1ccc(-c2csc(NC(=O)CSc3ncn(-c4ccccc4)n3)n2)cc1	6%
COc1ccc(N2CCN(C(=O)CSc3nnc(C)c(=O)[nH]3)CC2)cc1	6%
O=Cc1ccco1	-2%
O=C(CSc1nnc(Cc2csc(Nc3cccc(Cl)c3)n2)o1)N1CCc2ccccc21	13µM*
CCOC(=O)c1c(CN2CCN(C)CC2)oc2ccc(O)cc12	-15%
Cc1c(NC(=O)c2cc3nc(-c4ccccc4)cc(C)n3n2)c(=O)n(-c2ccccc2)n1C	25%
COc1ccccc1NC(=O)NCCN1C(=O)C2C3C=CC(C3)C2C1=O (stereo unspecified)	4µM*[single pt active]
COC(=O)[C@@]1(Cc2ccc(OC)cc2)[C@H]2c3cc(C(=O)N4CCCC4)n(Cc4ccc(C)c(F)c4F)c3C[C@H]2CN1C(=O)c1ccccc1	113%
CCCCCOc1ccc(OC(=O)c2ccncc2)cc1	40%
COC(=O)c1sc2nc3c(cc2c1N)COC(C)(C)C3	4%
COc1ccccc1NC(=O)C1CC(=O)N(c2ccc(F)cc2)C1 (stereo unspecified)	8%

# Structures listed so far that have a thiophene ring, fused or not, in the order listed:
Compound	AmpC nodet inh
CN=C1SC(CC(=O)Nc2sc3c(c2C#N)CCCC3)C(=O)N1C (stereo unspecified)	128%
CC1(C)C(c2cccs2)=[N+]([O-])C2(CCCCC/C2=N\O)N1O (stereo unspecified)	-7%
Fc1ccc(-n2c(Cc3ccccc3)nnc2SCc2nc(-c3cccs3)no2)cc1	49%
Cc1cccc(NC(=O)Cn2nnc(-c3cccs3)n2)c1C	83%
COC(=O)CCC(=O)Nc1sc(C)c(C)c1C(N)=O	-4%
Cc1ccc(C2NC(=O)NC(O)(C(F)(F)F)C2C(=O)c2cccs2)o1 (stereo unspecified)	-2%
O=C(Nc1scc(-c2cccs2)c1C(=O)O)c1cccs1	-17%
COc1ccc(S(=O)(=O)N2CCC(C(=O)NCC(c3cccs3)N(C)C)CC2)cc1 (stereo unspecified)	34%
COC(=O)c1sc2nc3c(cc2c1N)COC(C)(C)C3	4%

# The listing continues.
Compound	AmpC nodet inh
O=S(=O)(NCCc1ccncc1)c1ccc(S(=O)(=O)N2CCCCCC2)cc1	24%
CCCn1c(N)c(C(c2ccc(C(=O)OC)cc2)N2CCN(c3ccccc3)CC2)c(=O)[nH]c1=O (stereo unspecified)	98%
Clc1ccc(Oc2nc(N3CCOCC3)nc(N3CCOCC3)n2)c(C2CCCCC2)c1	50%
CC(OC1=CC(=O)CCC1)C(=O)c1ccccc1 (stereo unspecified)	8%
CCN(CC)CCO	-14%
O=C(NC1CCCCC1)N(CCN1CCOCC1)Cc1cc2cc3c(cc2[nH]c1=O)OCCO3	76%
CN(C)c1oc(-c2ccc(OCc3ccccc3)cc2)nc1C#N	42%
CC(C)Nc1nc(C#N)nc(NC(C)C)n1	-7%
N#CC12CCCCC1CC1CCCCC1(C#N)N2CCO (stereo unspecified)	-2%
CN(C)c1ncc2nc(-c3ccc(F)cc3)c(=O)n(Cc3ccc(F)cc3)c2n1	6%
COc1ccccc1NC(=O)Cn1cnc2c(cnn2-c2ccccc2)c1=O	17%
C=Cc1ccccn1	-6%
Cc1cccnc1-n1c(CCN2C(=O)c3ccccc3C2=O)nc2ccccc2c1=O	62%
Cn1c(=O)c(C#N)c(-c2ccccc2)n2cnnc12	-5%
CCS(=O)(=O)N1CCC(C(=O)Nc2cc(Cl)ccc2O)CC1	-4%
COc1ccc(C)cc1S(=O)(=O)N(C)CC(=O)Nc1ccc2c(c1)OCCO2	8%
O=C(c1ccc(-c2ccccc2)cc1)N1CCC(C(=O)N2CCCC2)CC1	109%
CN(C)c1ccc(/C=c2\sc3nc(-c4ccccc4)nn3c2=O)cc1	12%
Cc1ccc(C(C)C)c(OCc2nc(-c3nonc3N)no2)c1	-22%
CC1(C)CC(=O)C=C(NCCCNC2CCCCC2)C1	-7%
CN(C)c1cc(N)c2ccccc2n1 (tested in a mixture with another compound)	3%
CN(C)c1ccc(-c2cncnc2NCc2cccs2)cc1	14%
Clc1ccc(-c2noc(COc3ccccc3)n2)cc1	-7%
O=C(Nc1ccc2oc(-c3ccccc3)nc2c1)c1ccncc1	100%
Cc1ccc(S(=O)(=O)NCCCNS(C)(=O)=O)cc1	2%
COc1cccc2c1C(=N)c1c(O)c3c(c(O)c1C2=O)C[C@](O)(C(C)=O)C[C@@H]3O[C@H]1C[C@H](N)[C@@H](O)[C@H](C)O1	23%[5.75 µM]
CCOC(=O)c1cnn2c(C(F)(F)F)cc(-c3cn(C)nc3C)nc12	66%
O=C(c1cccc(F)c1)N1CCC[C@@]2(CCN(c3ccncc3)C2)C1	-1%
O=C(CSc1nnc(CNc2ccccc2)o1)N1CCCc2ccccc21	37%
O=S(=O)(c1ccc(Br)cc1)N1CCN(S(=O)(=O)c2ccc(Br)cc2)CC1	-8%[5.75 µM]
CN(C)CCN(c1ccccn1)c1ccccn1	-10%[5.75 µM]
CCOC(=O)C1CCCN(C(=O)C2CCCN(S(=O)(=O)c3ccc4c(c3)oc(=O)n4C)C2)C1 (stereo unspecified)	103%
COc1cccc(OC)c1C(=O)NCCN1CCN(C(=O)c2c(OC)cccc2OC)CC1	14%
Cn1cccc1C(=S)N1CCOCC1	-4%
Cc1nc2ccc(NC(=O)c3ccc(S(=O)(=O)N4CCOCC4)cc3)cc2s1	20%
O=C(Cc1ccc(F)cc1)Nc1c2c(nn1-c1cccc(Cl)c1)CS(=O)C2 (stereo unspecified)	33%

# Some of the compounds tested; rates above refer to the full screens.
